Tg IFNy HTS – blocks Toxoplasma gondii growth in the presence of IFN-gamma; Toxoplasma gondii growth in IFN-gamma-treated host cells; hits give low values; reference of the scale not given here; 69,000 compounds, 3.8% hits; activity change, negative = inhibition, %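 (about 20 µM by stock and volumes)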; AID 1259416;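 active = below -70%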;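 also: host cells are HeLa cells infected with Toxoplasma gondii; parasite growth read as luciferase light; one replicate is shown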
Starred values were filed as active, the others as inactive; i = inactive; & = joins results of further samples. An excerpt (hit frequency here may not be typical).

Sample of the layout, five compounds:
SMILES	Tg IFNy HTS
Cc1ccccc1C(NC(=O)C1(c2ccccc2F)CC1)c1ccncc1 (stereo unspecified)	-7
Cc1nc(-c2ccccc2)sc1C(=O)Nc1c(C)nc2c(C)cccn2c1=O	189
O=C1CO[C@H]2CN(CC3CCOC3)C[C@@H]2N1Cc1cccc(F)c1 (stereo partly specified)	4
CSc1ccc(C(=O)C2CCCN(C(=O)c3n[nH]c(=O)c4ccccc34)C2)cc1 (stereo unspecified)	8
Cc1nn(-c2ccccc2)c(C)c1/C=N/N1CCN(Cc2ccccc2)CC1	1&-1

The whole of this part, repeating the preview:
SMILES	Tg IFNy HTS
Cc1ccccc1C(NC(=O)C1(c2ccccc2F)CC1)c1ccncc1 (stereo unspecified)	-7
Cc1nc(-c2ccccc2)sc1C(=O)Nc1c(C)nc2c(C)cccn2c1=O	189
O=C1CO[C@H]2CN(CC3CCOC3)C[C@@H]2N1Cc1cccc(F)c1 (stereo partly specified)	4
CSc1ccc(C(=O)C2CCCN(C(=O)c3n[nH]c(=O)c4ccccc34)C2)cc1 (stereo unspecified)	8
Cc1nn(-c2ccccc2)c(C)c1/C=N/N1CCN(Cc2ccccc2)CC1	1&-1
CCCCCCCCCCCC[N+](C)(C)CCOc1ccccc1	-20
Cc1ccccc1S(=O)(=O)N1[C@H](C#N)[C@@H](c2ccc(C#CC3CC3)cc2)[C@@H]1CO	-4
COC(=O)CCc1ccc(OCC(O)CNC(C)C)cc1 (stereo unspecified)	13
Cc1ccc2c(c1)C(=O)[C@]1(O)CCN(c3ccccc3)C1=N2	14
CCOc1ccc(-c2nc(CN(c3ccccc3OC)S(=O)(=O)c3ccccc3C)c(C)o2)cc1	-4
C[C@H](CO)N1C[C@H](C)[C@H](CN(C)Cc2ccc(Oc3ccccc3)cc2)Oc2ccc(N(C)C)cc2C1=O	68
COCCOC(=O)C1=C(C)NC(C)=C(C(=O)OC(C)C)C1c1cccc([N+](=O)[O-])c1 (stereo unspecified)	7&6&9
O=C(O)c1ccccc1C1CCN(C(=O)Cc2c[nH]c3ccccc23)C1 (stereo unspecified)	-42
COc1cc(N2C[C@@H]3COC[C@]3(CC(=O)N(C)C)C2)ncn1	-6
Cc1nc(C)c(C(=O)N2CCc3nnc(C4CCCCN4C)n3CC2)s1 (stereo unspecified)	2

Part of the list above, bar-delimited.
SMILES | Tg IFNy HTS
Cc1ccccc1S(=O)(=O)N1[C@H](C#N)[C@@H](c2ccc(C#CC3CC3)cc2)[C@@H]1CO | -4
COC(=O)CCc1ccc(OCC(O)CNC(C)C)cc1 (stereo unspecified) | 13
Cc1ccc2c(c1)C(=O)[C@]1(O)CCN(c3ccccc3)C1=N2 | 14

Further results:
SMILES	Tg IFNy HTS
OC1COCc2nc3ccccc3n2C1 (stereo unspecified)	19
Cc1cccc(CN2CCC(N3CCC(C(=O)NCC(O)CO)CC3)CC2)n1 (stereo unspecified)	0
O=C(CC(c1cccc(O)c1)c1ccccc1Cl)NCc1ccncc1 (stereo unspecified)	16
CN(C)c1ncc(-c2ccccn2)c(C2CCC(CNC(=O)c3ccn(C)c(=O)c3)CC2)n1 (stereo unspecified)	32
COc1cc2c(cc1OC)C(c1ccccc1NC(=O)c1cccc(Cl)c1)=NCC2	43
COCc1nc(NCc2cccc(CN3CCCC3)c2)c2cnn(C)c2n1	-3
CS(=O)(=O)c1ccc(C(=O)NCc2cnn3ccccc23)cc1	69
C=CCN(C(=O)CNS(=O)(=O)c1ccccc1)C(C(=O)NCCOC)c1cccnc1 (stereo unspecified)	23
c1ncc(CC2CCNCC2)[nH]1	10&19
O=C1COC2(CCN(C(=O)C3CCOC3)CC2)CN1Cc1ccccc1 (stereo unspecified)	-35
O=C(NC(=O)c1ccccc1F)OCc1ccc(Cl)cc1Cl	-37
CCOC(=O)c1oc2ccccc2c1NC(C)=O	16
O=C(Nc1ccc(Cl)cc1)N1CCC2(CC1)Nc1ccccc1-n1cccc12	i
O=C1Nc2ccccc2-c2ccccc2N1	17
COC(=O)C[C@H]1CC[C@@H]2[C@H](COc3ccc(NS(=O)(=O)c4ccc(C)cc4)cc3C(=O)N2C)O1	-6
CCS(=O)(=O)Nc1ccc2c(c1)C(=O)N(C)[C@@H]1CC[C@H](CC(=O)N[C@H]3CCN(Cc4ccccc4)C3)O[C@@H]1CO2	14
CCN1C[C@@H]2CN(S(=O)(=O)c3cccs3)C[C@H]2C1=O	11
CN(C)CCOCC1CN(CC2CC2)Cc2nnn(C)c21 (stereo unspecified)	341
CSc1sc(C(=O)Sc2ccc(Cl)cc2)cc1S(=O)(=O)C(C)C	-79*
Cc1nc([C@@H]2C[C@H]3CCN(C(=O)c4cccs4)C[C@@H]3O2)no1	-41
CCOc1ccc(N(C2=NCCCS2)S(=O)(=O)c2c(C)cc(C)cc2C)cc1	-42
Cc1ccc(-c2c(-c3cc(C)no3)cnn2CCNC(=O)c2cccnc2C)cn1	7
CCOc1ccccc1-c1nc(Cn2nnc(C(=O)Nc3cccc(Cl)c3C)c2C)c(C)o1	415
O=C1[C@@H]2[C@H]3CC[C@H](C3)[C@@H]2C(=O)N1CCCCN1CCN(c2ncccn2)CC1	8
C=CCn1c2ccccc2n2cc(C)nc12	7
Cn1nc(C(C)(C)C)c(NC(=O)c2sc3ccccc3c2Cl)c1C(C)(C)C	33
COC(=O)Cn1c(=O)c(=O)n(CC(=O)OC)c2ccccc21	49
Cc1ccc(NC(=O)c2sc3nc(-c4cc5cc(Cl)ccc5oc4=O)[nH]c(=O)c3c2C)c(C)c1	-16
CCN1c2cc(C)ccc2-n2cccc2C12CCN(C(=O)Nc1cccc(C(F)(F)F)c1)CC2	-111*
CN(C)c1cc(CN(C)S(=O)(=O)c2ccccc2Cl)nc(C2CCNCC2)n1	-10
O=C(CN1C(=O)C2C3CCC(C3)C2C1=O)Nc1nnc(CC(=O)N2CCOCC2)s1 (stereo unspecified)	10
Cc1ccc(C2c3[nH]c4ccccc4c3CCN2C(=O)CCc2ccccc2)cc1 (stereo unspecified)	-80*
COc1ccc(C(=O)N2CCCC(c3ncc(Cl)cc3S(C)(=O)=O)C2)cc1OC (stereo unspecified)	53
O=C(C1CCOCC1)N1C[C@@H](c2ccccc2)[C@@]2(CCNC2=O)C1	35
COCc1ncc(CN2CCCC(Cc3ccc(C(=O)O)cc3)C2)cn1 (stereo unspecified)	4
O=C(c1ccc(Cl)cc1)N1CCC2(CC1)Nc1ccccc1-n1cccc12	36
CCCc1nc2cc(Cl)c(Cl)cc2nc1C	15
O=C1NCC2(CCCN(C(=O)CCn3cnc4ccccc4c3=O)C2)O1 (stereo unspecified)	-4
N#CCCOc1ccc(Cl)cc1Cl	50
Cc1cccc(N2CCn3c(Cn4cncn4)cnc3C2)n1	-34
Cc1noc(C)c1S(=O)(=O)Nc1ccc2c(c1)C(=O)N([C@H](C)CO)C[C@H](C)[C@@H](CN(C)C(=O)Nc1cccc3ccccc13)OCCCC[C@H](C)O2	116
Cc1c(F)cccc1CN1CCC2(CC1)CC(NS(=O)(=O)C1CC1)CCO2 (stereo unspecified)	-5
COc1ccccc1-c1ccc([C@H]2[C@@H](CO)N3CCCCN(C(=O)c4cccnc4)C[C@@H]23)cc1	18
CC(C)c1nnc(NC(=O)C2c3ccccc3Oc3ccccc32)s1	-17
COc1ccccc1CNC(=O)CN1C(=O)CCc2cc(S(=O)(=O)N3CCCCC3C)ccc21 (stereo unspecified)	-25
COc1ccc(C[C@H]2CCn3cc(nn3)COC[C@@H](c3ccccc3)NC2=O)cc1	-2
CS(=O)(=O)N1CCOC2CCN(C(=O)c3ccoc3)CCC21 (stereo unspecified)	2
CCOc1ccccc1-c1ccc(-n2cnnc2)nc1C	-7
O=C(CCC1Nc2c3ccccc3nc(=S)n2C1=O)NCc1cccc(Cl)c1 (stereo unspecified)	6
C=CCC(=O)N(CCSCC)C1CCCCC1	-2
O=C(C[C@@H]1CC[C@H](NC(=O)Nc2ccc(C(F)(F)F)cc2)[C@H](CO)O1)NCc1cccc(F)c1	-68
N/C(=N\OC(=O)c1cccc(Br)c1)c1ccncc1	113
COC(=O)c1c(-c2cc(OC)c(OC)c(OC)c2)c2ccnc(OCc3ncccn3)c2c(=O)n1Cc1ccnc(C)c1	14&8
Cn1c(CCC(=O)N2CCNCC2C(=O)NC2CC2)nc2cccnc21 (stereo unspecified)	-40
CCc1cn[nH]c1C1CCCN(C(=O)c2csc(Cc3ccccc3)n2)C1 (stereo unspecified)	1
CC1CCN(Cc2ccc(C(=O)N3CC(c4cccnc4)C3)o2)CC1	-6
CCC(Nc1cccc(OC)c1)C(=O)N(C)Cc1n[nH]c2c1CCC2 (stereo unspecified)	-3
CO[C@@H]1CN(C)C(=O)c2ccc(NS(C)(=O)=O)cc2OC[C@@H](C)N(S(=O)(=O)CC(F)(F)F)C[C@H]1C	-12
Cc1cc2cc(NC(=O)CCC3C(=O)Nc4ccccc43)cc(Cl)c2o1 (stereo unspecified)	25
O=c1nc2sccn2c2ncccc12	-3

(more compounds)
SMILES	Tg IFNy HTS
CNC[C@H]1OCc2cnnn2CCCC(=O)N([C@@H](C)CO)C[C@H]1C	-9
O=C(Nc1cccc(-n2cccn2)c1)C1CN(C2CCCCC2)C1	-2
CCS(=O)(=O)N1CCC2(CC1)OC(=O)C(C)=C2C(=O)NCCc1ccc(C)cc1	41
COc1ccccc1-c1nc(Cn2nnc(-c3nc(-c4cccc(Cl)c4)no3)c2C)c(C)o1	0
Cc1cccc(N2CCN(C(=O)CC3Nc4c5ccccc5nc(=S)n4C3=O)CC2)c1C (stereo unspecified)	-3
CN(C)CCN1CCOCC2(CCCN(C(=O)c3ccc4nc[nH]c4c3)C2)C1 (stereo unspecified)	-40
CCn1ncc(NC(=O)Cn2ncc3cc(-c4ccc(OC)nc4)ccc32)n1	57
CN1C(=O)CCc2cc(C(=O)NCc3cccc(Cl)c3)ccc21	-50
COc1ccc(Cc2nc(N)nc(N)n2)cc1	-4
Cc1cc(C)cc(NC(=O)C(=O)NCCc2csc(-c3cccc(F)c3)n2)c1	-92*
COc1ccc2c3c([nH]c2c1)[C@H](CO)N(Cc1ccccc1Cl)CC31CN(C(=O)C2CC2)C1	-35
O=C(Cc1ccccc1)N1CCOCC2(CN(Cc3ccncc3)CCO2)C1 (stereo unspecified)	0
COCC(=O)N1CC2(C1)[C@H](c1ccccc1)[C@H](CO)N2CCC(F)(F)F	4
CC(C)c1cc(=O)[nH]c(SCc2ccc(Cl)cc2Cl)n1	-50
Cc1ccc2[nH]c3c(=O)n(CC(=O)NCc4ccncc4)cnc3c2c1	199
Cc1ccc(-c2nnc(-c3nc(N(C)Cc4ccccc4)c4ccccc4n3)o2)cc1	-26
Cc1cc(C)n(C(C)C(=O)NCCS(=O)(=O)N(C)C)n1 (stereo unspecified)	2
Cc1cc2nc(CCNC(=O)c3cnc(-c4ccc(Cl)cc4)nc3)[nH]c2cc1C	-95*
COc1cccc(CNC(=O)N2CCC3(CC2)Nc2ccccc2-n2cccc23)c1	344
O=S(=O)(c1ccc(F)c(Cl)c1)N1CCC2(CC1)Nc1ccccc1-n1cccc12	33
Clc1cccc(-c2nccn2-c2ccc(-n3cnnn3)cc2)c1	1
Cc1c(Cl)cccc1NC(=O)CN1C(=O)CCc2cc(S(=O)(=O)N3CCCCC3)ccc21	-11
CCN(CC)CCCNC(=O)c1cc2cccc(OC)c2oc1=O	-43
O=C(Cc1cc(F)ccc1F)NCc1nnc(-c2ccncc2)o1	83
CNC(=O)C[C@@H]1COC[C@@H]2CN(c3ccc(C)nn3)C[C@@H]21	40
CC(=O)c1cccc(CN2CCCC2C(=O)Nc2cccc(-n3cccn3)c2)c1 (stereo unspecified)	2
CSc1nccc(-c2cc(Cl)c3c(c2)CC(CNC(=O)c2cc(C)nn2C)O3)n1 (stereo unspecified)	7
O=c1[nH]nc(CCc2ccccc2O)n1C1CCCCC1	-3
CCCn1cc(C(=O)N(Cc2ccccc2F)C(C)CC)c(C)n1 (stereo unspecified)	-6
CC(=O)c1cc(OCC(F)(F)F)ccc1OCC(F)(F)F	-51

Reprinted from the part before: 2 compounds; new compounds follow.
SMILES	Tg IFNy HTS
CCCn1cc(C(=O)N(Cc2ccccc2F)C(C)CC)c(C)n1 (stereo unspecified)	-6
CC(=O)c1cc(OCC(F)(F)F)ccc1OCC(F)(F)F	-51
CN(CCC(C)(C)O)C(=O)c1ccc(N)nc1	12
COC1CC2CC1CN2C(=O)c1cccc(C#N)c1 (stereo unspecified)	84
Clc1ccc(-c2nc(NC3CCN(Cc4ccccc4)CC3)c3ccccc3n2)cc1	-65
COc1cccc(CC2(C(=O)O)CCN(C(=O)C(C)C)CC2)c1	14
CC(Cc1cccs1)NC(=O)c1ccc(CSc2ncccn2)o1 (stereo unspecified)	20
N#C[C@H]1[C@@H](c2ccccc2C2=CCCC2)[C@H](CO)N1C(=O)Cc1ccncc1	-11
c1ccc2c(c1)CCCc1cc(NCCN3CCOCC3)nnc1-2	17
CC(C)c1nccn1-c1cc(C(=O)O)cc(S(=O)(=O)N2CCCCCC2)c1	9
COC(=O)C(CO)NCC(=O)NC1CCCCCCC1 (stereo unspecified)	-65
C[C@H]1CN([C@@H](C)CO)C(=O)c2cc(NC(=O)CCCN(C)C)ccc2O[C@H]1CN(C)Cc1ccc(Cl)c(Cl)c1	-64
O=C(Cn1c(=O)cc(C(=O)N2CCc3ccccc3C2)c2ccccc21)Nc1ccccc1Cl	14
CN1CCN(C(=O)c2cc3c(c4ccccc4n3C)n2C)CC1	31
COCCN1CC2(CCC1=O)CCN(C(=O)c1ccncn1)CC2	-39
Cc1nc(CCNC(=O)c2cnn(-c3ccccn3)c2C)sc1C	-41

4 compounds drawn at random from the list so far, as already listed:
SMILES	Tg IFNy HTS
C[C@H](CO)N1C[C@H](C)[C@H](CN(C)Cc2ccc(Oc3ccccc3)cc2)Oc2ccc(N(C)C)cc2C1=O	68
COc1ccc(Cc2nc(N)nc(N)n2)cc1	-4
CCN1C[C@@H]2CN(S(=O)(=O)c3cccs3)C[C@H]2C1=O	11
Cc1c(Cl)cccc1NC(=O)CN1C(=O)CCc2cc(S(=O)(=O)N3CCCCC3)ccc21	-11
